Screening results from PubChem.
Rce1 inh = yeast Rce1p protease inhibitors, primary screen, biochemical, fluorescence, cell-free homogeneous; CAAX prenyl protease 2 (Saccharomyces cerevisiae (strain ATCC 204508 / S288c)), Q03530; yeast membranes, quenched prenylated peptide cleavage fluorescence; calls only; 290,000 tested, 0.27% active;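 active means fall in fluorescence gain of 50% or more versus controls, with final raw signal at or below 3038400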;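 further: plate controls were neutral control wells for no effect and wells lacking membranes for full effect; tested at 10 µM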
eIF4H inh = human eIF4H binding inhibitors, primary screen, translation initiation inhibitor project, biochemical, uHTS, fluorescence polarization. inhibition, % at 35 µM. eIF4H fluorescence polarization binding assay. 290,000 tested, 0.94% active;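 active means 50% or more with normal probe brightness, or confirmed in later tests; about a fifth of its hits are not listed in these tables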;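 further: calls also rest on retests at 20 µM and on dose response follow-up; 0% = protein and probe with vehicle and 100% = probe without protein; strong numbers were not always called active; many hits fall short of the cut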
CSC inhib = cancer stem cell viability inhibitors, primary screen, luminescence; cancer stem cell-like cells viability; inhibition, % at 7.5 µM; 300,000 tested, 1.1% active;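 active means mean at 75% or more and at least half the replicates too; tested in HMLE shEcad cells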;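 further: 0% = median of negative and 100% = median of positive control wells; the first replicate is given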
Env fusion inh = inhibitors of HIV-1 Env-driven cell-cell fusion, primary screen, HeLa-JRFL effector, CEM21 target cells, luciferase; inhibition, % at 12.3 µM; 360,000 tested, 1.1% active; AID 651610, 2012;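 active means mean replicate inhibition score of at least 50 and every replicate individually at or above 50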;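 further: 0% = plate neutral controls and 100% = maraviroc near 300 nM; one replicate is shown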
MT1-MMP act inh = blockers of MT1-MMP proenzyme processing, primary screen, HT1080 RFP-PRO-GFP cells, GFP/RFP fluorescence; Matrix metalloproteinase-14 (Homo sapiens), P50281; GFP/RFP ratio fluorescence, overnight; percent of plate control window, DMSO zero; GFP/RFP ratio change, % at 20 µM; 360,000 tested, 0.061% active; AID 651647, 2012;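 active means GFP/RFP ratio change of at least 30% with cell ATP level not reduced by more than half and red fluorescence within 50% of control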; further: strong numbers were not always called active
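Assay system: HT1080 cells carrying an RFP-PRO-GFP reporter | Dosing: Single dose of 20 µM compound, 1% DMSO final | Incubation: Cells overnight before dosing, compound overnight, 37 °C, 5% CO2 | Evaluation: GFP/RFP fluorescence ratio | Control set: DMSO and RFP-L50D-GFP cell wells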
Yeast UUG start = modulators of yeast start codon fidelity, primary screen, whole organism, S. cerevisiae, single point, plate reader. S. cerevisiae UUG-firefly luciferase reporter, luminescence/redox ratio. activity score, % at 18.7 µM. 350,000 tested, 0.13% active;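 active means replicate mean at a twofold rise or more, about +100% in these data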;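 further: firefly luciferase made from a UUG start codon reports start codon fidelity; reporter light over untreated wells divided by growth signal over untreated wells; some hits fall short of that in this replicate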
PABP polyA inh = PABP poly(A) RNA binding inhibitors, primary screen, biochemical, fluorescence polarization, uHTS; inhibition, % at 35 µM; 290,000 tested, 1% active; AID 2014, 2009;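 active means 50% or more with normal probe brightness, or confirmed in later tests; about a fifth of its hits are not listed in these tables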;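 further: calls also rest on retests at 20 µM and on dose response follow-up; controls were probe without protein and protein plus probe with vehicle; some compounds called inactive have numbers as strong as hits; many hits fall short of the cut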
Target sequence (P11940 whole entry, looked up): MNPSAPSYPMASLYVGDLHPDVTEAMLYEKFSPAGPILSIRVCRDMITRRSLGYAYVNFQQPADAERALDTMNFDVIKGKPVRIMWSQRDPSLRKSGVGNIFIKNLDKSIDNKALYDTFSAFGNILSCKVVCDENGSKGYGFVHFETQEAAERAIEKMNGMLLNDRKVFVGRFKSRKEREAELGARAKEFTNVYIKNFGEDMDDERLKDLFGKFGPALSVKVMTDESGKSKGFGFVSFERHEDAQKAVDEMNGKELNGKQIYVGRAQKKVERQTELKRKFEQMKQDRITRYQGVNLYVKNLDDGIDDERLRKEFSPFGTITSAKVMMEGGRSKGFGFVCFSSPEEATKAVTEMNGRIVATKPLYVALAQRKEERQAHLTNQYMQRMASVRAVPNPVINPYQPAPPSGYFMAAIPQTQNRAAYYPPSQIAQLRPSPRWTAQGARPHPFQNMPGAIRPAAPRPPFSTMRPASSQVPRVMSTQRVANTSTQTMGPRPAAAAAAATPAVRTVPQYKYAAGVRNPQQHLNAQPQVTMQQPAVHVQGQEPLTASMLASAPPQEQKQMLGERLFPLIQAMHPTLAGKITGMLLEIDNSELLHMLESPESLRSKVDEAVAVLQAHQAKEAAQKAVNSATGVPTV
MT1-MMP act inh RFP = further read-out of MT1-MMP act inh, marked with its call; RFP signal change, %; measured here: RFP expression control read;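 0 = vehicle wells; hits needed this value within 50% of zero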
* marks the source's active call; other numbers are inactive results; i = inactive; . = no result given; + = active, no number. Not all compounds are listed. The share of hits here may be higher or lower than overall.

Results follow in this order: Rce1 inh	eIF4H inh	CSC inhib	Env fusion inh	MT1-MMP act inh	MT1-MMP act inh RFP	Yeast UUG start	PABP polyA inh
- CCn1c(SCC(=O)Nc2ccc(NC(C)=O)cc2)nc2c1c(=O)n(C)c(=O)n2C
  i	3	.	-1	1	5	-1	3
- O=C(O/N=C1/CCCc2occc21)c1ccc(F)cc1
  i	4	-8	-4	-2	1	.	3
- CCOC(=O)C1CCN(C(=O)CCc2ccc(S(=O)(=O)NCC(C)C)cc2)CC1
  i	-3	7	-10	2	0	3	4
- Cc1cc2c(sc3ccccc32)c(C)n1
  i	0	-11	37	2	-2	-19	9
- CN(C[C@H](Cc1ccccc1)N(C[C@@H](CC1CCCCC1)N(CCc1ccccc1)N=O)N=O)N=O
  i	-1	14	56*	-3	1	-12	13
- CCn1nc(C(=O)OCC(=O)c2ccc3c(c2)OCCO3)c2ccccc2c1=O
  .	-2	-19	1	-14	-5	6	-1
- Cc1ccc(-c2nc(Nc3ccc(N4CCOCC4)cc3)c3ccccc3n2)cc1
  +	-8	90*	17	2	0	7	-11
- COc1nc(C)c2cc(C)oc2n1
  .	-1	0	2	2	5	.	6
- CCOc1ccc(S(=O)(=O)N2CCC(C(=O)N3CCOCC3)CC2)cc1C
  i	5	-5	4	3	2	-15	-6
- CC1(C(=O)NS(=O)(=O)c2ccc(Cl)cc2)CCN1C(=O)Cc1ccccc1Cl (configuration not stated)
  .	.	.	-11	1	2	-11	.

Full records, looked up by structure.
COc1nc(C)c2cc(C)oc2n1 in the list: Rce1 inh = .; eIF4H inh = -1; CSC inhib = 0; Env fusion inh = 2; MT1-MMP act inh = 2; MT1-MMP act inh RFP = 5; Yeast UUG start = .; PABP polyA inh = 6
CC1(C(=O)NS(=O)(=O)c2ccc(Cl)cc2)CCN1C(=O)Cc1ccccc1Cl (configuration not stated) in the list: Rce1 inh = .; eIF4H inh = .; CSC inhib = .; Env fusion inh = -11; MT1-MMP act inh = 1; MT1-MMP act inh RFP = 2; Yeast UUG start = -11; PABP polyA inh = .
CCOc1ccc(S(=O)(=O)N2CCC(C(=O)N3CCOCC3)CC2)cc1C in the list: Rce1 inh = i; eIF4H inh = 5; CSC inhib = -5; Env fusion inh = 4; MT1-MMP act inh = 3; MT1-MMP act inh RFP = 2; Yeast UUG start = -15; PABP polyA inh = -6

Further compounds.
Results follow in this order: Rce1 inh	eIF4H inh	CSC inhib	Env fusion inh	MT1-MMP act inh	MT1-MMP act inh RFP	Yeast UUG start	PABP polyA inh
- O=C1c2ccccc2-c2cccnc21
  i	-6	.	-13	-1	0	-21	-2
- O=S(=O)(c1ccc(F)cc1)N1CCCC(CO)C1 (configuration not stated)
  i	-7	0	.	-1	-3	-1	1
- Cc1ccc(C=Nc2cccnc2N)cc1
  i	4	-15	.	-35	0	.	0
- COc1cc(CN2CCCC(C(=O)N3CCc4ccccc4C3)C2)cc(OC)c1OC (configuration not stated)
  i	17	-2	2	2	1	-8	14
- CC1CCCC(C)N1CCCNC(=O)CN1C(=O)COc2ccc(S(=O)(=O)N3CCOCC3)cc21 (configuration not stated)
  i	6	-16	4	-5	1	-6	-3
- COc1cccc(C2NC(=O)CCC2[N+](=O)[O-])c1OC (configuration not stated)
  i	6	-4	-93	3	0	-14	3
- COc1ccc(-c2nnc3ccc(SCC(=O)N4CCOCC4)nn23)cc1
  i	-1	-9	1	3	3	-1	-3
- Nc1cc(S(=O)(=O)Nc2ccccc2Cl)ccc1N1CCOCC1
  i	8	-13	-1	7	-7	-4	-14
- Nc1nonc1C(=O)NC(c1ccccc1)c1ccccc1
  i	0	-14	-2	-5	-8	-13	4
- Cc1nc2c(OCC(=O)C(C)(C)C)cccn2c1N(C)Cc1cccs1
  .	.	.	-3	-2	0	-15	.

The listing continues:
Results follow in this order: Rce1 inh	eIF4H inh	CSC inhib	Env fusion inh	MT1-MMP act inh	MT1-MMP act inh RFP	Yeast UUG start	PABP polyA inh
- COc1cc(C(CC(=O)Nc2ncccc2C)N2Cc3ccccc3C2=O)cc(OC)c1OC (configuration not stated)
  i	-7	7	1	0	0	8	-6
- CCn1c2ccccc2c2cc(NC(=O)CSc3nnc(C4CC4)n3Cc3ccco3)ccc21
  i	9	-1	.	-31	-6	-14	16
- Cc1ccc([N+](=O)[O-])cc1NC(=O)c1ccc(CSc2ccccc2)cc1
  i	-9	4	3	-1	3	.	14
- CC(C)NC(=O)CSc1nc(Cc2cccs2)nc2ccccc12
  i	-12	-9	-26	-1	4	-13	-2
- Cc1cccc(OCc2nnc(SCc3cc(=O)[nH]c4ccccc34)n2-c2ccccc2)c1
  i	-4	-18	.	-12	-1	-4	-4
- COc1ccc(-c2cc(C(F)(F)F)nc(N3CCN(Cc4ccccc4)CC3)n2)cc1OC
  i	-13	28	-12	-4	-5	3	-4
- Cc1nn(C(=O)N(C)C)c(C)c1CN1C(=O)c2ccccc2C1=O
  i	-6	.	-22	0	1	-22	-9
- CCCNC(=O)COC(=O)c1n[nH]c2ccccc12
  i	-3	4	4	4	4	.	-48
- CCOc1ccc(-n2ccnc(SCC(=O)Nc3ccc(CC)cc3)c2=O)cc1
  i	.	-18	-10	0	-1	-5	.
- Cc1ccc(CCC(=O)Nc2ccc(S(N)(=O)=O)cc2)o1
  i	3	-4	.	-2	3	-4	12

Continuation:
Results follow in this order: Rce1 inh	eIF4H inh	CSC inhib	Env fusion inh	MT1-MMP act inh	MT1-MMP act inh RFP	Yeast UUG start	PABP polyA inh
- O=C(CN(c1ccccc1)S(=O)(=O)c1ccc(Cl)cc1)Nc1ccccc1C(=O)N1CCCC1
  i	-7	10	.	-10	2	.	-7
- CCn1c(=O)cc(OCC(=O)NCCc2ccc(OC)c(OC)c2)c2ccccc21
  i	5	-10	6	8	7	.	-1
- CC(C)c1nc(SCC(=O)N2CCCC2)c2ccccc2n1
  i	-3	-7	2	9	4	-3	6
- COc1ccc(OC)c(NC(=O)c2ccc(N3C(=O)C4CC=C(C)CC4C3=O)cc2)c1 (configuration not stated)
  i	-6	6	8	-1	0	11	0
- O=C(Nc1ccncc1)C1COc2ccccc2O1 (configuration not stated)
  i	-5	3	.	4	-15	-13	-4
- COc1ccc(NS(=O)(=O)c2ccc(NC(=O)Cc3cccs3)cc2)cc1
  i	-9	-5	25	7	-2	.	38
- COc1ccc(C(=O)CC2(C(=O)O)CCCCC2)cc1
  i	-3	-15	-9	1	4	-22	4
- NC1=NN=C(N2N=C(c3ccc(Br)cc3)CC2(O)C(F)(F)F)n2ncnc2C1 (configuration not stated)
  i	16	-9	14	3	6	.	-8
- Cc1nnc2sc(SCC(=O)N3CCCCC3)nn2c1=O
  i	-12	-4	7	1	4	-3	-3
- COCCn1c(SCc2cccc(F)c2)nc2cc(C(=O)OC)ccc2c1=O
  i	2	-3	14	-1	-2	-11	-11

Other structures follow:
Results follow in this order: Rce1 inh	eIF4H inh	CSC inhib	Env fusion inh	MT1-MMP act inh	MT1-MMP act inh RFP	Yeast UUG start	PABP polyA inh
- COc1ccccc1/C=C/C(=O)NCC(=O)N/N=C/c1ccccc1[N+](=O)[O-]
  i	1	8	3	4	1	.	14
- COc1cc(O)ccc1C=O
  i	-1	-10	-5	1	0	.	1
- COc1cc2cc(CN(CCCO)S(=O)(=O)c3ccccc3)c(=O)[nH]c2cc1OC
  i	-7	-11	.	5	-1	-2	-7
- O=C1Nc2ccccc2N(O)N1c1cc(-c2ccc(Cl)cc2)[nH]n1
  .	-6	-8	3	-2	-2	-15	-6
- CCc1nn(C(C)C(=O)NCCN2CCN(c3cccc(C)c3C)CC2)c(=O)c2cc3occc3n12 (configuration not stated)
  i	-8	1	.	1	-8	7	2
- CC1CCCC(C)N1C(=O)COC(=O)CSc1ccc(C(N)=O)cc1[N+](=O)[O-] (configuration not stated)
  i	.	-11	.	-2	0	-20	.
- CN1CCN(c2ccc(S(=O)(=O)N3CCCCC3)cc2NC(=O)COc2cccc(Cl)c2)CC1
  i	.	8	13	-2	-1	-11	.
- COc1cc(NC(=O)Cn2cnc(S(=O)(=O)N3CCC(C)CC3)c2)cc(OC)c1OC
  i	0	.	3	2	4	-4	-4
- CN(C)S(=O)(=O)c1cccc(NC(=O)COc2cccc(C#N)c2)c1
  i	-14	2	.	4	3	5	-5
- COc1ccc(Nc2nc(N)nc(CN3CCC(Cc4ccccc4)CC3)n2)cc1
  i	-4	6	15	2	2	-12	-17

(next part)
Results follow in this order: Rce1 inh	eIF4H inh	CSC inhib	Env fusion inh	MT1-MMP act inh	MT1-MMP act inh RFP	Yeast UUG start	PABP polyA inh
- CCC/C(=C1/c2ccccc2C(=O)N1c1ccccc1)c1ccc2c(c1)OCCO2
  .	.	89*	-56	1	-5	-5	.
- CC1=CC(=O)C(C(C)=Nc2ccccc2[N+](=O)[O-])C(=O)O1 (configuration not stated)
  .	.	.	3	-2	2	-8	.
- OC[C@H]1NC[C@@H](O)[C@@H]1O
  .	.	-11	-18	0	0	-8	.
- Cc1ccc(C)c(C(=O)NC(C)CCc2ccccc2)c1 (configuration not stated)
  i	-5	9	7	2	0	.	-1
- CCOC(=O)CSC1=C(C#N)C(=O)NC(c2ccc(OC)cc2)S1 (configuration not stated)
  i	7	-8	-5	-1	3	-14	35
- COc1cccc(CNC(=O)c2nnn(CC(=O)Nc3ccc(Br)cc3)c2N)c1
  i	3	-9	10	-7	-1	-13	3
- OC(c1nc2ccc(F)cc2[nH]1)C(O)c1nc2ccc(F)cc2[nH]1 (configuration not stated)
  i	4	-1	-11	4	2	-21	-1

Retrieved by compound from above, seven records:
Results follow in this order: Rce1 inh	eIF4H inh	CSC inhib	Env fusion inh	MT1-MMP act inh	MT1-MMP act inh RFP	Yeast UUG start	PABP polyA inh
- O=S(=O)(c1ccc(F)cc1)N1CCCC(CO)C1 (configuration not stated)
  i	-7	0	.	-1	-3	-1	1
- Cc1cccc(OCc2nnc(SCc3cc(=O)[nH]c4ccccc34)n2-c2ccccc2)c1
  i	-4	-18	.	-12	-1	-4	-4
- COc1cc2cc(CN(CCCO)S(=O)(=O)c3ccccc3)c(=O)[nH]c2cc1OC
  i	-7	-11	.	5	-1	-2	-7
- CC1=CC(=O)C(C(C)=Nc2ccccc2[N+](=O)[O-])C(=O)O1 (configuration not stated)
  .	.	.	3	-2	2	-8	.
- OC[C@H]1NC[C@@H](O)[C@@H]1O
  .	.	-11	-18	0	0	-8	.
- CCn1c2ccccc2c2cc(NC(=O)CSc3nnc(C4CC4)n3Cc3ccco3)ccc21
  i	9	-1	.	-31	-6	-14	16
- COc1cc(CN2CCCC(C(=O)N3CCc4ccccc4C3)C2)cc(OC)c1OC (configuration not stated)
  i	17	-2	2	2	1	-8	14
